# Yfh1-depleted yeast: mitochondrial function rescue without frataxin homolog – Friedreich's ataxia, plus single-dose screen, dose response (AID 1465); one-dose fold induction at 50 µM; EC50 in µM for titrated hits; S. cerevisiae Yfh1-off respiration, WST-1 reduction, 72 h; higher fold induction means a stronger effect; actives 0.074% (n = 220,000);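 active = fold induction of absorbance versus untreated yeast above a set limit, then at least 30% activation at any dose in follow-up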;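 also: activators that raise dye reduction in frataxin-depleted yeast; strong numbers were not always called active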
# HIV peptide binding: cell-free HIV fusion peptide-binding blockers – biochemical, uHTS, fluorescence dequenching, primary screen (AID 1986); inhibition, % at 20 µM; hits with a dose series show IC50 in µM; actives 0.3% (n = 290,000); cell-free peptide binding, fluorescence dequenching, 30 min; higher % means a stronger effect; in the data active = inhibition mostly above about 52%, no sharp cut-off; inactive = mostly below about 76%; also: some results filed as inactive read as strong as hits
# Autophagy mod: autophagy modulation, high-content screen; calls only at 10 µM (by protocol); actives 0.98% (n = 190,000); MEF GFP-LC3 puncta imaging; test concentration mostly 10 µM;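 active = percentage of spot-positive cells more than 3 SD above its plate mean, without a fluorescence outlier flag or 80% toxicity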;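 also: spot-positive cell cutoff set from DMSO-treated cells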
# AID2073: disruptors of CaV2.2 binding to Mint1 – biochemical, HTRF (AID 2073); HTRF protein-protein interaction, Mint1-CaV2.2; higher % means a stronger effect; inhibition, % at 20 µM, or IC50 in µM where a hit was titrated; actives 0.19% (n = 290,000); in the data active = inhibition mostly above about 51%, no sharp cut-off; also: some results filed as inactive read as strong as hits
# MT stabilizer: microtubule stabilization, imaging screen. HeLa tubulin immunostaining HCS, 24 h; share of cells brighter than vehicle mean+2SD. % tubulin-high responders, % at 10 µM. actives 0.83% (n = 200,000);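 active = plate Z-score above 3 for both tubulin-high and condensed-nucleus cell shares, with cell loss under 80%, at 10 µM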;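 also: anti alpha tubulin signal scored within the nucleus-defined area of each cell; some results filed as inactive read as strong as hits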
# WT yeast gro inh: growth inhibition of WT yeast, mitochondrial fusion screen; mitochondrial fusion phenotypic screen, WT strain; inhibition, % at 10 µM; actives 2.1% (n = 190,000); AID 1362; in the data active = inhibition above about 58%; tested in S. cerevisiae
# Dynein transport: blocks dynein driven cargo transport along microtubules; z-score, hits read low; AID 1381; 3617.4 mouse cells, GR-EGFP nuclear translocation imaging; test concentration mostly 20 µM; stimulated with dexamethasone, 1 µM; stronger effect = lower value; actives 0.47% (n = 220,000);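 active = plate z-score of nuclear minus cytoplasmic receptor signal below a set negative limit, without overly bright fluorescence or cell loss, cut at about -3.5 in these data, passing the limit was not always enough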;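 also: z-score of nuclear minus cytoplasmic ring GR-EGFP intensity difference per well; some compounds called inactive have numbers as strong as hits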
#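 Also added: dexamethasone, 1.0 µM final. Medium: tet-free, stripped-serum medium. Detection: fixed, Hoechst-stained cells imaged at 10x for EGFP. Read-out: nuclear-to-cytoplasmic GR-EGFP distribution per well. Times: induction 48 h, compound 1 h, agonist 30 min.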
# Ins promoter up: MIN6 insulin promoter up-regulation. actives 0.3% (n = 190,000). z-score at 5 µM. MIN6 insulin promoter-GFP reporter, high-content imaging; stronger effect = higher value;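 active = z-score above 3 at 5 µM with at least 500 cells counted in the well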
# WT yeast gro inh mutant strain: also measured in WT yeast gro inh; calls as there; inhibition, %; mitochondrial fusion phenotypic screen, mutant strain inhibition
# Dynein transport cytoplasmic EGFP: recorded beside Dynein transport, whose call it bears; z-score; measured here: cytoplasmic GR-EGFP intensity; stronger effect = higher value
# Dynein transport nuclear GR-EGFP: also measured in Dynein transport; calls as there; z-score; measured here: nuclear GR-EGFP intensity;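 lower value marks the stronger effect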
# Dynein transport cell count: further read-out of Dynein transport, marked with its call; z-score; measured here: cell count per field
# Ins promoter up cell count: second read-out of Ins promoter up, no call of its own (marks repeat the call); cell count; measured here: cytotoxicity, nuclei count;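 total cells summed across four imaged fields per well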
# MT stabilizer Hoechst-high %: second read-out of MT stabilizer, no call of its own (marks repeat the call); % Hoechst-high responders; measured here: nuclear condensation Hoechst responders;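 share of cells brighter than vehicle mean plus two SD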
# MT stabilizer cytotoxicity %: also measured in MT stabilizer; calls as there; toxicity, %; measured here: cytotoxicity by cell density;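 0% = mean cell density of plate MIN control wells and 100% = no cells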
# Autophagy mod cell loss 18 h: further read-out of Autophagy mod, marked with its call; toxicity, %; measured here: cell loss, nuclei count;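 cell loss after 18 h compound exposure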
# Numbers without * were called inactive; i = inactive; · = not tested or not shown.
Compound,Yfh1-depleted yeast,HIV peptide binding,Autophagy mod,Autophagy mod cell loss 18 h,AID2073,MT stabilizer,MT stabilizer Hoechst-high %,MT stabilizer cytotoxicity %,WT yeast gro inh,WT yeast gro inh mutant strain,Dynein transport,Dynein transport cytoplasmic EGFP,Dynein transport nuclear GR-EGFP,Dynein transport cell count,Ins promoter up,Ins promoter up cell count
CCc1ccccc1NC(=O)C(C)n1nc([N+](=O)[O-])c(Br)c1C (stereo not drawn),i,0.2%,i,-25,-2%,2.2,1.4,4.7,0,13,-2.1,0.074,-0.16,0.75,0.01,1543
CC1=C(C(N)=O)C(c2cccs2)n2nc(-c3cccc(Cl)c3)nc2N1 (stereo not drawn),i,2.1%,i,2,-3%,3.1,1.6,8.8,-10,-11,-0.32,-0.17,0.15,0.02,-0.27,1620
N#Cc1nc(-c2ccc(OCc3ccccc3)cc2)oc1NCCCn1ccnc1,i,-3.5%,i,13,0%,5.8,2.6,2.8,-5,2,-0.37,-0.15,-0.78,-0.18,-1.9,1220
CC1(C)CC(=O)C2=C(C1)OC(N)=C(C#N)C2c1ccccc1OC(=O)N1CCOCC1 (stereo not drawn),i,0.7%,i,-6,-2%,3.4,2.3,5.5,-14,-15,-0.18,-0.2,0.096,0.37,-0.02,1349
Cc1sc(NC(=O)c2ccccc2)c(C(=O)NCCN(C)C)c1C,i,3.1%,i,-3,22%,0.2,1.8,8.9,3,0,-0.82,-0.27,-0.33,0.41,-0.75,1489
CCC(=O)Nc1nnc(SCC(=O)c2ccc3c(c2)Cc2ccccc2-3)s1,i,2.4%,i,-28,17%,2.2,1.3,8.1,-12,-8,-0.84,-0.17,0.22,1.6,-0.21,1637
Oc1ccc(C(=S)N2CCCCCC2)cc1,i,-2.5%,i,-2,-34%,3.7,1.4,1.6,-18,-1,1.4,-0.2,0.85,-1.2,0.19,1559
Cc1cc(N2C(=O)C(O)=C(C(=O)c3cccs3)C2c2cccc(O)c2)no1 (stereo not drawn),i,4.6%,i,-3,-2%,1.3,2.1,4.8,-1,10,0.33,-0.041,0.014,-0.25,-0.12,1640

# Continued; the last 4 above are carried over.
Compound,Yfh1-depleted yeast,HIV peptide binding,Autophagy mod,Autophagy mod cell loss 18 h,AID2073,MT stabilizer,MT stabilizer Hoechst-high %,MT stabilizer cytotoxicity %,WT yeast gro inh,WT yeast gro inh mutant strain,Dynein transport,Dynein transport cytoplasmic EGFP,Dynein transport nuclear GR-EGFP,Dynein transport cell count,Ins promoter up,Ins promoter up cell count
Cc1sc(NC(=O)c2ccccc2)c(C(=O)NCCN(C)C)c1C,i,3.1%,i,-3,22%,0.2,1.8,8.9,3,0,-0.82,-0.27,-0.33,0.41,-0.75,1489
CCC(=O)Nc1nnc(SCC(=O)c2ccc3c(c2)Cc2ccccc2-3)s1,i,2.4%,i,-28,17%,2.2,1.3,8.1,-12,-8,-0.84,-0.17,0.22,1.6,-0.21,1637
Oc1ccc(C(=S)N2CCCCCC2)cc1,i,-2.5%,i,-2,-34%,3.7,1.4,1.6,-18,-1,1.4,-0.2,0.85,-1.2,0.19,1559
Cc1cc(N2C(=O)C(O)=C(C(=O)c3cccs3)C2c2cccc(O)c2)no1 (stereo not drawn),i,4.6%,i,-3,-2%,1.3,2.1,4.8,-1,10,0.33,-0.041,0.014,-0.25,-0.12,1640
COc1ccc(NC(=O)CCC(=O)c2ccc(-c3ccccc3)cc2)cc1,i,4.8%,i,-1,16%,1.3,1.6,9.9,7,-3,-0.27,-0.13,-0.23,0.31,-0.26,1644
O=C(CCCNC(=O)/C(=C\c1ccccc1F)NC(=O)c1ccccc1)OCc1ccccc1,i,6.2%,i,3,0%,1.4,1.3,7.8,18,78,-0.16,-0.24,-0.39,0.19,·,·
O=C(O)C1C2C=CC(C2)C1C(=O)N1CCN(C/C=C/c2ccccc2)CC1 (stereo not drawn),·,1.8%,i,-4,-6%,1.6,1.1,1.5,-11,22,0.94,-0.21,0.078,-0.47,0.46,1468
Cc1c(NCc2cc(Cl)ccc2O)c(=O)n(-c2ccccc2)n1C,i,-1.2%,i,5,-1%,3.4,1.6,6.9,-10,2,-0.74,-0.27,-1.1,0.61,-0.67,1543
CCOc1ccc(N2CC(C(=O)OC)CC2=O)cc1 (stereo not drawn),i,0.8%,i,-2,-9%,1.9,1.8,4.2,20,11,-0.89,0.42,0.094,-0.86,0.28,1847
Cc1ccc(N2C(=O)C3C4C=CC(C4)C3C2=O)cc1C (stereo not drawn),i,0.8%,i,0,-6%,5.4,5.1,4.5,28,15,-0.16,-0.33,-0.06,0.17,-0.43,1566
O=C(COC(=O)C1CCN(S(=O)(=O)c2cc([N+](=O)[O-])ccc2Cl)CC1)Nc1ncc(Cl)cc1Cl,i,15%,i,5,3%,2.9,1.8,5.0,-1,-13,-0.69,-0.16,-1.1,0.19,0.78,1613
Cc1cccc(-n2c(=O)c3c(n4cnnc24)-c2ccccc2CC32CCCCC2)c1,i,2.2%,i,-19,5%,3.2,1.9,5.7,74*,12*,1.5,-0.067,1.1,-0.6,-0.88,1606
Cc1c(NC(=O)CCCOc2ccccc2)cccc1[N+](=O)[O-],i,0.7%,i,-17,14%,2.5,1.3,2.4,-3,-5,-0.46,-0.15,-0.43,0.56,1.8,1172
Cc1ccc(C(=O)NC(=S)Nc2ccccc2C(F)(F)F)cc1C,i,0.3%,i,-5,15%,1.8,2.2,5.3,80*,60*,-0.45,-0.23,-0.27,0.68,-0.26,1623
Cc1ccc2[nH]c(C)c(/C=N/Nc3nc4ccccc4s3)c2c1,i,1.4%,i,-1,18%,3.6,1.6,1.2,68,74,0.62,-0.13,0.55,-1.3,-2,1450
COc1ccc(C(=O)c2ccc(N(C)C)cc2)c(OC)c1,i,0.2%,i,32,3%,24,14,67,-6,-3,-1.2,-0.31,-0.45,0.28,0,1386
Cc1cccnc1NC1(C(F)(F)F)N=C(c2ccccc2)NC1=O (stereo not drawn),i,-0.4%,i,-8,-3%,1.5,1.9,6.9,57,49,0.37,0.27,0.23,-0.97,-0.26,1677
Cc1cc(Cl)ccc1NC(=O)CN1CCC(C(O)(c2ccccc2)c2ccccc2)CC1,i,-0.8%,i,17,29%,1.0,1.2,6.7,56,31,1.3,-0.23,0.08,-0.37,-1.3,1511
C=CCOc1c2ccc(C(=O)NCc3ccccc3OC)cc2nn1C,i,-1.4%,i,2,26%,1.5,2.1,9.9,30,2,-0.11,-0.23,-0.19,0.16,0.84,1576
Cc1ccc(NC(=O)Cc2ncc(C(F)(F)F)cc2Cl)cc1Cl,i,-1.5%,i,-9,8%,0.8,1.2,7.2,12,22,-0.29,-0.19,-0.31,0.49,0.29,1649
COC(=O)COc1ccc(C2NC(=O)NC(c3ccccc3)=C2C(C)=O)cc1OC (stereo not drawn),i,-2.5%,i,2,0%,2.6,1.8,5.9,7,-8,0.98,-0.22,-0.54,0.26,-0.61,1470
CC(=O)Nc1ccc(NC(=O)CSc2nnc(-c3ccco3)n2Cc2ccco2)cc1,i,0.6%,i,3,-1%,4.3,1.7,1.4,11,-14,-0.45,-0.36,-0.059,0.61,0.22,1487
COC(=O)c1ccc(OCC2c3cc(OC)c(OC)cc3CCN2C(=O)c2ccco2)cc1 (stereo not drawn),i,-1.1%,i,22,-6%,5.6,2.9,12,1,11,-0.34,-0.34,-0.16,0.87,-1.1,1030
Cc1ccccc1Nc1nnc(SCC(=O)NCc2ccco2)s1,i,14%,i,-3,-1%,4.9,1.6,12,-3,-10,-0.83,-0.12,-0.092,-0.036,0.46,1446
N#Cc1ccc(CNc2cnccn2)cc1,i,-3.3%,i,2,2%,1.7,1.5,2.1,-16,-5,0.8,0.0093,0.26,-0.84,0.1,1374
CCN1CCN(CCC(=O)Nc2cccc(OC)c2)CC1,i,4.4%,i,5,1%,2.3,2.4,0.3,22,4,-0.14,-0.19,-0.74,0.34,-0.46,1593
O=C(Cc1ccccc1)N[C@@H](Cc1ccccc1)c1nc2ccccc2[nH]1,i,3.2%,i,1,14%,3.1,2.4,6.6,1,-5,0.1,-0.32,0.19,0.11,0.16,1595
Cc1cccc(C)c1NC(=O)CSc1nnc(-c2ccccc2)n1Cc1ccc2c(c1)OCO2,i,-2.0%,i,5,-5%,2.4,1.9,3.5,-16,-23,-0.29,-0.22,-0.84,0.31,2.6,1419
C=CCNC(=O)c1cc(Cl)ccc1Cl,i,-3.4%,i,-3,-7%,1.9,1.9,4.9,2,20,0.71,0.011,0.81,-1.2,2.4,1433
Cc1ccc(S(=O)(=O)CCc2nnc(N)s2)cc1,i,2.6%,i,-6,20%,4.0,1.5,8.6,-12,3,-1,-0.27,-1.3,1.5,-0.15,1619
CCOc1cc2[nH]c(=S)n(CCC(=O)N3CCc4ccccc4C3)c(=O)c2cc1OCC,i,1.1%,i,7,-11%,2.3,1.4,3.5,-2,3,-0.24,-0.21,-0.26,0.54,-0.29,1616
Cc1cc(C)c(S(=O)(=O)NCC23C=CC(O2)C2C(=O)N(c4ccccc4)C(=O)C23)c(C)c1 (stereo not drawn),i,0.1%,i,0,2%,1.9,1.4,9.9,6,-3,-0.81,-0.14,-0.5,1.3,-0.78,1694
COc1ccc(C(=O)Nc2ccc(Cl)cc2C(=O)NCCN2CCOCC2)cc1,i,-0.3%,i,-2,-3%,1.4,1.8,10,71*,12*,-0.57,-0.15,-0.027,-0.56,0.03,1463
COc1cccc(OCC(=O)NC2CCCCC2)c1,i,1.4%,i,-3,6%,4.1,2.0,5.0,20,-1,-0.74,-0.14,-0.1,0.34,-0.86,1437
Cc1ccc(-n2nc(-c3ccc(N)cc3)cc2N)cc1,i,0.8%,i,8,8%,2.0,2.0,1.2,8,3,0.013,-0.24,0.23,0.55,0.76,1465
Cc1cc(N2CCCCC2)nc(NCc2ccccc2)n1,i,0.1%,i,28,-2%,17*,16*,20*,20,8,-1.3,-0.2,-0.59,0.41,-0.51,1014
O=C(CCCNC(=O)/C(=C/c1ccccc1F)NC(=O)c1ccccc1)OCc1ccccc1,i,2.0%,i,-1,1%,5.5,2.3,15,-11,5,0.49,-0.24,0.44,0.6,0.13,1467
Cc1ccc(-c2cc(N)n(-c3ccccc3)n2)cc1,i,-2.0%,i,10,-2%,2.2,1.9,7.4,-1,6,0.49,-0.21,1.2,-0.036,5.3*,1290*

# From PubChem BioAssay

# These rows are one share of the data; rates above refer to the full screens.
